Screening data: PubChem BioAssay, National Center for Advancing Translational Sciences (NCATS)
TRPML1 inh: blocks the human TRPML1 channel; actives 0.02% (n = 390,000); Q9GZU1; TRPML1-inducible cells, Ca2+ dye fluorescence, FDSS; hits give low values; inhibition of EC80 agonist-evoked calcium signal; AID 624415; activity change, negative = inhibition, % (no concentration beside the values); in the data active means activity change below about -50%; inconclusive means about -30% to -50%; inactive means above about -30%;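 further: stimulus is agonist 54-4 at its EC80 concentration; on the % scale 0 is the no-effect control and ±100 the full control effect; compound concentration not given in the record; the text of the record puts the active cut at -80%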
Target sequence (Q9GZU1 whole entry, looked up): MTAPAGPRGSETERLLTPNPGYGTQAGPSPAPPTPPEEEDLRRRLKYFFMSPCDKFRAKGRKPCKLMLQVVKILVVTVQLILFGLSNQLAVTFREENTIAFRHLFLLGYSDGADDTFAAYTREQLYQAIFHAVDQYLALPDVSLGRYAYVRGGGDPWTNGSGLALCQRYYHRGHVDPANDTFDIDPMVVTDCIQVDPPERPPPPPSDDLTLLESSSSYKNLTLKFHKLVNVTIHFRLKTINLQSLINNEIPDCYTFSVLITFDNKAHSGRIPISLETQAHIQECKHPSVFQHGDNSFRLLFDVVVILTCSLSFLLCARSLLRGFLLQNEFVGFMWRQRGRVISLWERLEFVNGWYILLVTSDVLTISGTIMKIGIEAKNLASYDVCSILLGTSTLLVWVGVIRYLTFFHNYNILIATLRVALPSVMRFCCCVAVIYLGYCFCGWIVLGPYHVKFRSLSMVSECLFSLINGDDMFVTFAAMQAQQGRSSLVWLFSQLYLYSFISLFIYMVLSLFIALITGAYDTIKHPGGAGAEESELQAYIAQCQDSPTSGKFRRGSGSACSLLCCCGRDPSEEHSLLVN
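Calcium fluorescence in TRPML1-DL cells induced overnight with Tet: a 110 s read after compound pin addition, then a 110 s antagonist read after challenge with 54-4 at 4 uM final (EC80).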
PINK1 modulator: modulators of PINK1 expression. PINK1 immunofluorescence, high-content cytometry, 24 h. Potency, µM (doses to about 76.6 µM), without a hit: at the highest dose activation (PINK1 increase), actives largely listed as activators. actives 0.2% (n = 410,000); active = well fitted activation curve with a large enough effect; inconclusive = small, poorly fitted or top-dose-only effect; inactive = flat fitted curve, though single readings scatter; cell line not stated here;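 further: potency means the concentration at half of the fitted maximal effect; % of control where 0% means no effect; nearly all actives have a fitted effect of over 65% in size; a mitochondrial uncoupler was the plate control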
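PINK1 protein level read as immunofluorescence by microplate cytometer in a fixed, stained stable cell line after 24 h exposure to five compound concentrations, with CCCP as control.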
Six1-Eya2 blk: inhibitors of human Six1/Eya2 interaction. Q15475+O00167. AlphaScreen GST-Six1/His-Eya2 binding, biochemical; hits give low values; control for the full effect not named in the record. activity change, % (no concentration beside the values). actives 0.56% (n = 360,000). AID 651725; in the data active = activity change below about -65%; inconclusive = about -30% to -65%; inactive = above about -30%; further: on the % scale 0 is the no-effect control and ±100 the full control effect; compound concentration not given in the record
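GST-Six1 + His-Eya2 (5X stock: 250/500 nM); Tris pH 8.0, 300 mM NaCl, 0.05% BSA, 0.02% Tween 20; GSH donor/Ni acceptor beads; 1 h 37 °C dark; AlphaScreen readout.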
D2 potentiator: human D2 receptor positive allosteric modulation; P14416; DiscoveRx D2 beta-arrestin cells, luminescence, 90 min; 100% = 57 uM dopamine signal; potentiation, % (concentration not given with the values); actives 0.23% (n = 360,000); AID 624464; active = potentiation of 50% or more; inconclusive = 30% to 50%; inactive = 30% or less;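 further: compound concentration not given in the record; tested on top of an EC20 dose of dopamine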
Target sequence (P14416 whole entry, looked up): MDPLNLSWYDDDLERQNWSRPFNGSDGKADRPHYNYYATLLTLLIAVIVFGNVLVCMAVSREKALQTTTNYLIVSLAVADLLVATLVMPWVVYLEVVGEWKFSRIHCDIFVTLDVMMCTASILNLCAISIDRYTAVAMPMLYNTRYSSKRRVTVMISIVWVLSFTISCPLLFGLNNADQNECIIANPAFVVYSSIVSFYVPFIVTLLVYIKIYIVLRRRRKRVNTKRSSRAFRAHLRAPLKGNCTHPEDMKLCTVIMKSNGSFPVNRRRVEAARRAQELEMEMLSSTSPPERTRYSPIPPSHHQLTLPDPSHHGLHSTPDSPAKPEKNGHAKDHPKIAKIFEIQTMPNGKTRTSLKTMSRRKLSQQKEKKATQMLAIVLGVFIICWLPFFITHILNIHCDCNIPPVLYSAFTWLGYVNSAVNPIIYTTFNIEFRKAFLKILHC
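PathHunter beta-arrestin assay in DiscoveRx D2 cells. Compounds were added with an EC20 of dopamine (50 nM final) for 90 min at 37 deg C. Luminescence was read 1 h after detection reagent, with 57 uM dopamine as the EC100 control.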
TRPML1 ag: agonists of human TRPML1 channel | Q9GZU1 | TRPML1-expressing cells, Ca2+ dye fluorescence, FDSS; host cell line not named in the record; reference of the full effect not given here | activation, % (no concentration beside the values) | actives 0.12% (n = 410,000) | AID 624414; in the data active = activation above about 50%; inconclusive = about 30% to 50%; inactive = below about 30%; further: 0% is about no effect; the text of the record puts the active cut at 80%
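Cells: TRPML1-DL, 1X Tet inducer, ~16 h at 37 degrees C/5% CO2. Dye: ABD Ca8 no-wash + quencher, 45-90 min RT. Read: 10 s baseline, compound add, 110 s agonist phase; 54-4 EC80 (4uM final), 110 s antagonist phase.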
D2 agonist: agonists of human D2 dopamine receptor (beta-arrestin). AID 624465. DiscoveRx PathHunter D2 beta-arrestin, luminescence, 90 min; 100% = 57 uM dopamine signal. activation, % (test concentration not listed). actives 0.084% (n = 360,000). P14416; in the data active = activation above about 40%; inconclusive = about 15% to 40%; inactive = below about 15%; further: compound concentration not given in the record; the text of the record calls up to 30% inactive
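DiscoveRx PathHunter D2 beta-arrestin cells (2,100/well) attached overnight, then compound-stimulated 90 min at 37 C in HBSS/10 mM HEPES/0.1% Tween-20 buffer; beta-galactosidase complementation read by luminescence after 1 h at ambient temperature. Dopamine 57 uM final (EC100) as control.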
The depositor's hits bear a star; ? = inconclusive; · = not tested or not shown; & = joins results of further samples; [ ] = remark or other dose.

Every second line gives: TRPML1 inh | PINK1 modulator | Six1-Eya2 blk | D2 potentiator | TRPML1 ag | D2 agonist
(1) O=C(NCCN1CCC(Cc2ccccc2)CC1)C1CCN(S(=O)(=O)N2CCC3(CC2)OCCO3)CC1
  36 | -1.5% | -1 | -18 | 0.2 | 2.4
(2) Cc1ccc2c(c1)N(C(=O)CCC(=O)NCCCN1CCN(C)CC1)CCO2
  -2 | 1.9% | 24 | -7 | -0.7 | 0.6
(3) CC(C)N(C(=O)CSc1nnc(Cn2nnc3ccccc32)n1C)C(C)C
  13 | -0.6% | -1 | -8 | 0.3 | -2.5
(4) COc1cc(/C=C/C(=O)OCC(=O)NCCN2C(=O)CSC2=O)ccc1OC(F)F
  -6 | 1.3% | -1 | -1 | -0.7 | 0.1
(5) COc1cc(C(=S)N2CCN(c3ccccc3Cl)CC2)cc(O)c1O
  61 | 0.4% | -15 | -13 | -0.4 | 6.2
(6) CCc1ccc(NC(=O)c2ccc(NC(=O)C3CCCO3)cc2)cc1 (stereo not given)
  17 | 0.0% | -1 | -8 | -1.4 | -3.9
(7) C[C@H](CO)N1C[C@H](C)[C@@H](CN(C)C(=O)NC2CCCCC2)Oc2c(NC(=O)Cc3ccccc3)cccc2C1=O
  -5 | 0.4% | -2 | -3 | -0.8 | -5.9
(8) COc1ccc(C2C(C(N)=O)=C(C)Nc3nc(-c4ccccc4Cl)nn32)c(OC)c1 (stereo not given)
  -17 | 0.6% | 2 | -1 | 0.5 | -3.3
(9) CS(=O)(=O)N1CCc2cc(-c3csc(NC(=O)Cc4cccs4)n3)ccc21
  -2 | -2.3%[38.3 µM] | -11 | 16 | 0.0 | 6.4
(10) C/C(=N\NC(=O)c1cc(Br)ccc1O)c1cccc(NC(=O)c2ccccc2F)c1
  4 | -0.8% | ? | -16 | -0.9 | -3.8
(11) CCCC(O)(CCC)C(=O)NNc1ccccc1
  -8 | 1.2% | 11 | -10 | -1.0 | 8.2
(12) CCN(CC)S(=O)(=O)c1ccc2nc(CSc3nnnn3-c3ccc(O)cc3)[nH]c2c1
  23 | -1.6% | -18 | 11 | 1.3 | 2.6
(13) O=C(CN(C(=O)c1csnn1)c1cccc2c1CCCC2)NCc1ccccc1
  -2 | 3.6% | -5 | -5 | -0.7 | -1.5
(14) NC(=O)CSc1nnc(-c2ccc(S(=O)(=O)N3CCOCC3)cc2)n1Cc1ccccc1
  -11 | -4.3%[38.3 µM] | 3 | -11 | -0.5 | -0.5
(15) CCCN1CCN(C(=O)c2cccc3c2C(=O)N(CCOC)C3)CC1
  37 | 1.0% | 5 | 1 | -0.1 | 2.0
(16) Cc1ccc(C(C(=O)NC(C)(C)C)N(C(=O)c2csnn2)c2ccccc2F)o1 (stereo not given)
  12 | 3.3% | 2 | -6 | 1.8 | -0.9
(17) Cc1cc(C(=O)COC(=O)C2=NNC(=O)CC2)c(C)n1-c1ccc(OC(F)F)cc1
  -9 | 2.9% | -7 | 9 | -0.9 | 1.3
(18) Cc1ccc(Nc2c(-c3ccsc3)nc3cccc(C)n23)cc1
  -6 | 2.3%&-1.8% | · | · | -0.4&-0.2 | ·
(19) O=C(NCCC1=CCCCC1)C1CCN(S(=O)(=O)c2ccc(Br)s2)CC1
  -6 | 8.9% | 1 | 0 | 0.4 | -0.7
(20) C=CCn1c(C)nnc1SCC(=O)c1[nH]c(C)c(C(C)=O)c1C
  6 | -1.1% | -15 | -17 | 0.8 | -1.5
(21) COc1ccc(/C=N\Nc2ccccn2)c(OC)c1
  -3 | 1.4% | -2 | -8 | 1.1 | 3.2
(22) O=C(NC(=S)NNC(=O)c1ccccc1O)c1ccc(F)cc1
  -4 | -0.7% | -91* | -13 | 2.1 | 2.7
(23) COc1ccc(OC)c(S(=O)(=O)Nc2ccc3c(c2)N(C(C)=O)CCC3)c1
  -7 | 3.8% | 32 | -22 | 0.2 | -1.1
(24) C/C(=N\NC(=S)Nc1ccccc1C)c1ccc(O)cc1
  37 | 1.3% | -9 | -6 | 0.4 | -0.6
(25) O=C(CCn1cnc2onc(-c3ccc(F)cc3)c2c1=O)Nc1cccc(C(F)(F)F)c1
  -21 | ? | · | · | 1.3 | ·
(26) CCOc1ccc(CCNC(=O)C2CCN(c3ncnc4c3nc3n4CCCCC3)CC2)cc1
  -5 | -9.9% | · | · | 3.3 | ·
(27) COc1cccc(NC(=O)CSCc2n[nH]c(=O)[nH]2)c1
  7 | 4.1%[38.3 µM] | 1 | 4 | 0.3 | -1.6
(28) O=C(c1ccc(OC2CCN(C/C=C/c3ccccc3)CC2)cc1)N1CCCC1
  -2 | -0.6% | -11 | -32 | -0.4 | 0.9
(29) CCOP(=O)(OCC)C(Nc1ccccn1)c1ccc(F)cc1 (stereo not given)
  -4 | -0.4% | -2 | 4 | 0.3 | -0.6
(30) CCC1Oc2ccc(C)cc2N(CC(=O)NCc2ccco2)C1=O (stereo not given)
  6 | -0.1% | 6 | -4 | 1.0 | 0.3

Record cards, as listed above. Order of values: TRPML1 inh | PINK1 modulator | Six1-Eya2 blk | D2 potentiator | TRPML1 ag | D2 agonist
O=C(c1ccc(OC2CCN(C/C=C/c3ccccc3)CC2)cc1)N1CCCC1 reads -2 | -0.6% | -11 | -32 | -0.4 | 0.9
CS(=O)(=O)N1CCc2cc(-c3csc(NC(=O)Cc4cccs4)n3)ccc21 reads -2 | -2.3%[38.3 µM] | -11 | 16 | 0.0 | 6.4
Cc1cc(C(=O)COC(=O)C2=NNC(=O)CC2)c(C)n1-c1ccc(OC(F)F)cc1 reads -9 | 2.9% | -7 | 9 | -0.9 | 1.3

Next part.
Every second line gives: TRPML1 inh | PINK1 modulator | Six1-Eya2 blk | D2 potentiator | TRPML1 ag | D2 agonist
(31) COc1ccc(S(=O)(=O)N2CCCCC2C(=O)O)cc1 (stereo not given)
  -8 | -1.6%[38.3 µM] | -2 | -3 | 0.4 | 1.1
(32) Cc1cc(N2CCOCC2)nc(SCC(=O)c2ccccc2)n1
  -3 | 0.8%[38.3 µM] | 0 | -7 | 0.1 | -1.1
(33) CCN1C(=O)[C@@H]2[C@@H](c3ccc(-c4ccc(C(C)=O)cc4)cc3)N3CCCC[C@@]3(C(=O)OC)[C@@H]2C1=O
  -2 | -0.4% | -3 | -3 | -0.9 | -4.2
(34) CC(=O)Nc1ccccc1C(=O)N1CCN(c2cccc(C)c2C)CC1
  3 | 0.7% | 2 | -8 | 1.5 | 3.9
(35) COc1cc(OC)cc(C(=O)NCC(=O)N2CCC(C)CC2)c1
  6 | 1.9% | 1 | -4 | 0.1 | -2.4
(36) COc1ccc(-n2cc(C(=O)O)c(=O)cc2C)cc1
  -5 | -0.8% | 4 | -2 | -0.6 | -3.1
(37) Cc1cccc(-[n+]2c(C)cc(C)c3c(=O)[nH]c(=O)[nH]c32)c1
  3 | -0.1% | -10 | 1 | -0.1 | -3.8
(38) NC(=O)NC(c1ccccc1)c1ccccc1
  7 | · | 2 | 2 | 0.7 | -1.2
(39) COc1cccc(NC(=O)COC(=O)c2cccnc2)c1
  -10 | 3.4% | 2 | -16 | -0.4 | 1.5
(40) COc1ccc(-c2cc(C(F)(F)F)nc(N3CCN(Cc4ccccc4)CC3)n2)cc1OC
  17 | 1.3% | -18 | -27 | -0.1 | -5.5
(41) Cc1sc2ncn(CC(=O)NCc3ccccc3)c(=O)c2c1C
  ? | 7.5% | 10 | -9 | 0.7 | 1.9
(42) CN(N=Cc1ccc([N+](=O)[O-])cc1)c1ccccn1
  11 | -0.8% | -18 | -4 | 2.3 | -1.5
(43) O=C(C1=C[C@@H](c2coc3ccccc3c2=O)C[C@@H](OCc2ccc(CO)cc2)O1)N1CCCCCCC1
  16 | 0.2% | -1 | -10 | 2.9 | -1.3
(44) CCOC(=O)CNC(=O)N1CCCC(C(=O)c2ccccc2SC)C1 (stereo not given)
  -6 | -0.2% | 17 | 1 | -0.9 | -7.3
(45) COC(=O)c1cc(Br)cn1S(=O)(=O)c1ccccc1
  14 | 4.0% | 11 | -3 | 2.4 | -3.5
(46) COc1ccc(C(=O)N/N=C(/C)c2cccc(NC(=O)c3ccncc3)c2)cc1OC
  32 | 1.3% | -13 | -3 | 0.4 | 3.6
(47) COc1cc(OC)cc(C(C)=O)c1
  30 | -2.8% | 3 | -7 | 2.7 | 0.2
(48) COC(=O)N/N=C/c1cccs1
  3 | 0.2% | 7 | 1 | 4.2 | 1.5
(49) O=S1(=O)N[C@@H](Cc2ccccc2)COc2cccc(N3CCC[C@@H]3CO)c21
  · | -0.4% | 6 | · | 3.0 | ·
(50) O=C(c1cccn2c(=O)c3cc(Cl)ccc3nc12)N1CCN(Cc2ccc3c(c2)OCO3)CC1
  -2 | -0.8%[38.3 µM] | 6 | -7 | -0.5 | -1.5
(51) CC(C)(C)OC(=O)N1CCC(C(=O)Nc2cccc(C(=O)N3CCCCC3)c2)CC1
  -22 | -0.5% | 0 | -21 | 1.6 | 1.8
(52) CCOC(=O)N1CCN(Cc2nc(C3CC3)no2)CC1
  19 | 0.9% | 4 | -6 | -0.3 | 0.5
(53) CC1Oc2ccccc2N(Cc2cccnc2)C1=O (stereo not given)
  6 | -2.8%[38.3 µM] | 0 | 3 | 0.3 | -1.3
(54) CN(CC(=O)Nc1cccc(F)c1)C(=O)CCN1C(=O)C2CC=CCC2C1=O (stereo not given)
  -14 | 3.2% | -1 | -6 | 0.0 | 0.6
(55) COc1cccc(C(=O)OCc2cc(=O)oc3c(C)c(C)ccc23)c1OC
  2 | 17% | 6 | -6 | -1.6 | -5.6
(56) O=C(NCc1ccc(F)cc1)C(=O)NCC1OCCN1S(=O)(=O)c1ccc2c(c1)OCCO2 (stereo not given)
  -1 | -2.4% | -3 | 0 | -1.2 | 0.9
(57) O=C(CN1CCOCC1)Nc1nc(-c2ccccc2Cl)cs1
  · | 1.7% | -7 | -5 | · | -1.6
(58) NC12CC3CC(C1)CC(CO)(C3)O2
  17 | 0.0% | 4 | 7 | 0.5 | 1.5
(59) CN1N=C(C(=O)N2CCc3c([nH]c4ccccc34)C2c2c(F)cccc2Cl)CCC1=O (stereo not given)
  15 | 0.5% | -7 | -6 | 9.1 | -4.7
(60) CCCOc1ccc(C2CC(=O)NC2=O)cc1 (stereo not given)
  16 | -1.4% | 12 | -4 | 2.2 | -5.4
(61) CCN1CCN(CCCNC(=O)Cn2nc(C)n3nc(-c4ccccc4)cc3c2=O)CC1
  -14 | 0.6% | 0 | -11 | 0.2 | -3.8
(62) CCOCCn1ccc2c(OCC(=O)Nc3ccccc3OC)cccc2c1=O
  19 | 3.0% | ? | 8 | 2.3 | -0.3
(63) Cc1ccc(-c2nnc(N3CCC(C)CC3)c3ccccc23)cc1
  57 | -1.3% | 1 | -9 | 4.8 | -7.0
(64) O=C(CCN1C(=O)C2CC=CCC2C1=O)Nc1nc(-c2ccc(F)c(F)c2)cs1 (stereo not given)
  -24 | 1.2% | 2 | 0 | -0.2 | 2.1
(65) CNC(=O)COC(=O)C1CCN(S(=O)(=O)c2ccc3c(c2)OCCO3)CC1
  -6 | -0.5% | 1 | 0 | -0.1 | -1.9
(66) COc1cc(C=C(C(C)=O)C(C)=O)ccc1O
  -9 | -0.3% | 4 | 1 | 0.1 | -0.9
